Beta apoptosis: inhibitors of cytokine-induced beta cell apoptosis, primary screen, luminescence | protection from apoptosis, % (no concentration beside the values) | INS-1E cytokine-induced death, ATP luminescence, 48 h; percent of positive-control rescue, neutral wells zero | 0.8% of 300,000 active;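 active = all replicates at 75% or more, or half of them and the mean; inconclusive = half reach 75% but not the mean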;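 also: 0% = cytokine-treated negative control wells and 100% = positive control rescue; higher means more ATP so stronger rescue from cytokine killing; wells of about 40 µL received 100 nL stock; the first replicate is given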
Calb FLC: C. albicans growth inhibition with fluconazole, primary screen, CaCi-2 strain, Alamar Blue fluorescence; C. albicans CaCi-2 (fluconazole-resistant clinical isolate) + fluconazole, 48 h; growth inhibition, % (concentration not given with the values); 0.57% of 300,000 active; AID 1979, 2009;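 active = most replicates above 75%; inconclusive = exactly half above 75%; inactive = most below 75%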;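 also: all wells also contain fluconazole at 8 µg/ml as a sub-toxic cotreatment; 0% = median of DMSO wells and 100% = median of geldanamycin control wells; wells of about 8 µL received 7.5 nL stock; the first replicate is given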
UCH37 inh: inhibitors of human UCH37 deubiquitinase, primary screen, biochemical, Ub-AMC cleavage, fluorescence. Ubiquitin carboxyl-terminal hydrolase isozyme L5 (Homo sapiens), Q9Y5K5. purified proteasome/UCH37. inhibition, % (no concentration beside the values). 0.33% of 330,000 active. AID 588478, 2011;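 active = mean of two replicates above 20%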;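 also: 0% = compound-free wells with enzyme and 100% = wells lacking proteasome; stock transfer was 100 nL into about 20 µL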
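assay system = human UCH37 enzyme supplied as purified proteasome complex | amount = proteasome at 0.15 nM in the dispensed enzyme solution | schedule = 30 min compound-proteasome preincubation then 25 min substrate reaction, room temperature | measured by = fluorescence, ex 355 nm, em 460 nm | benchmarks = no-proteasome wells (full inhibition) and compound-free wells (no inhibition)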
B2AR ag: beta2AR agonists driving receptor internalization, primary screen, cell-based, FAP fluorogen, flow cytometry. AID 504454, 2011. 0.43% of 340,000 active. response, % (no concentration beside the values). Beta-2 adrenergic receptor (Homo sapiens), P07550. Am2.2-beta2AR cells; reference of the scale not given here;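 active = response above a set limit, near 3 SD of response in nonfluorescent compounds, cut at about 42% in these data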;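 also: stock transfer was 100 nL into about 11 µL; a reference agonist was the positive control; negative values mostly stem from fluorescent compounds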
LANA-H2A inh: blockers of LANA interaction with H2A/H2B – biochemical, FP readout, HTS, primary screen. cell-free LANA-H2A/H2B peptide, fluorescence polarization. Protein LANA1 (Human herpesvirus 8 type P (isolate GK18)), Q9QR71. AID 2629, 2010. inhibition, % (no concentration beside the values). 0.6% of 320,000 active; in the data active = inhibition mostly above about 10%, no sharp cut-off; inactive = mostly below about 6.7%;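 also: stock transfer was 7.5 nL into about 10 µL; 0% = median of vehicle wells and 100% = median of positive control wells; one replicate is shown; the record names a cut of 25% in any replicate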
Target sequence (Q9QR71 whole entry, looked up): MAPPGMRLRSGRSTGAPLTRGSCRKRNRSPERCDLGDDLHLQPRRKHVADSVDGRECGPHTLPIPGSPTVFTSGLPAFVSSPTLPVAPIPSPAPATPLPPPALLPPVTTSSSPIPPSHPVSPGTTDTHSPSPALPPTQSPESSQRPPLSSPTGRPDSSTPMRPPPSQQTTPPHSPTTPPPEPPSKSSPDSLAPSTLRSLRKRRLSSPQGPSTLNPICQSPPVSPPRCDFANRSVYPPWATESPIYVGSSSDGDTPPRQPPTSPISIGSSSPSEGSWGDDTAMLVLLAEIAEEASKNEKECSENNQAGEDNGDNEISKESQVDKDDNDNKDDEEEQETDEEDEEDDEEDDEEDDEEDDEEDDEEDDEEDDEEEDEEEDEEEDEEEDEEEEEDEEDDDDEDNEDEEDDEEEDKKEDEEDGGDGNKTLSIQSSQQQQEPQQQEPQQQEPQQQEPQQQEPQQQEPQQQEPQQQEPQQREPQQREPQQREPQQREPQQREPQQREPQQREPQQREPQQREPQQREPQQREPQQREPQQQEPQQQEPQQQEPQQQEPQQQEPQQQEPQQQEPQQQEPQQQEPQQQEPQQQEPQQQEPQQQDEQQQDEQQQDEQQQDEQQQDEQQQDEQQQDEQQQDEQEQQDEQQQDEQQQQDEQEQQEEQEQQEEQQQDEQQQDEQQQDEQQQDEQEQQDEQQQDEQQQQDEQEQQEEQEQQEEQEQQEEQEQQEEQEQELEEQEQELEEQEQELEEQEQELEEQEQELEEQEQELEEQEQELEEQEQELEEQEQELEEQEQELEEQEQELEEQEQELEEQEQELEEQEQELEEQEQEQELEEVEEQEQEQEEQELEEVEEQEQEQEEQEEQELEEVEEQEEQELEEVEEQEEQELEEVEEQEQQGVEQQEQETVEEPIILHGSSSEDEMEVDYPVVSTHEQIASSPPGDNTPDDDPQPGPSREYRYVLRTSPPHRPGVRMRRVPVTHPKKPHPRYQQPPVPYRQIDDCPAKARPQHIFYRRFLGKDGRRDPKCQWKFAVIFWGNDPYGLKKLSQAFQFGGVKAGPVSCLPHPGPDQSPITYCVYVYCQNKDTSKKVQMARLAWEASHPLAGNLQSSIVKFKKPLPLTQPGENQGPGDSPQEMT
Bfl-1 A1 inh: caspase 3/7 activation in MEF A1-2A-BIM cells, primary screen, A1 inhibitor project, cell-based, luminescence, HTS | Caspase-Glo 3/7 luminescence, 3 h; percent of clofoctol response, vehicle zero | caspase activation, % (test concentration not listed) | AID 2462, 2010 | 0.066% of 330,000 active;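 active = over half of replicate activation scores above 10%, or exactly half above 10 with the replicate mean above 10; inconclusive = replicate mean below 10 yet half the replicates above 10; inactive = over half of replicates below 10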;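 also: wells of about 30 µL received 50 nL stock; many hits fall short of the cut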
RanGTP-Impb inh: inhibitors of RanGTP-importin-beta interaction, primary screen, biochemical, FRET, CFP-Ran, YFP-importin-beta, homogeneous | Ran GTPase (GTP-bound) - importin-beta complex | cell-free CFP-Ran/YFP-importin-beta FRET ratio | inhibition, % (test concentration not listed) | 1.1% of 300,000 active | AID 2216, 2009;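 active = most replicates above 15%; inconclusive = exactly half above 15%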;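 also: 0% = DMSO wells and 100% = Ran loaded with GDP instead of GTP; wells of about 40 µL received 100 nL stock; the first replicate is given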
T cruzi repl: inhibitors of intracellular T. cruzi growth, primary screen, luminescence, NIH3T3 host cells; T. cruzi beta-gal in NIH3T3, 90 h; inhibition, % (concentration not given with the values); 1.4% of 300,000 active; AID 1885, 2009;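 active = mean inhibition across valid replicates above about 55%, limit read from the data; inconclusive = mean below that limit but half or more replicates reach it; inactive = mean below it, under half of replicates reach it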;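 also: signal also drops with host cell toxicity which is not excluded here; 0% = plate median of DMSO wells and 100% = zero luminescence signal; higher percent means less beta-gal luminescence so fewer parasites; stock transfer was 50 nL into about 50 µL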
Active calls of the source: *; ? = inconclusive; / = no result given.

canonical_smiles | Beta apoptosis | Calb FLC | UCH37 inh | B2AR ag | LANA-H2A inh | Bfl-1 A1 inh | RanGTP-Impb inh | T cruzi repl
COc1cc(/C=C(\C#N)c2nc3ccc(C)cc3[nH]2)c([N+](=O)[O-])cc1OC | 10 | -3 | 10 | 15 | -1.0 | 0.0 | 4.9 | 20
CN(CC(=O)NC1CC(C)(C)NC(C)(C)C1)S(=O)(=O)c1ccc(Br)cc1 | -3 | -1 | 2.5 | -5 | 3.2 | -0.7 | -2.5 | 12
CCOC(=O)C1=C(N)Oc2cc(C)n(C)c(=O)c2C1c1ccncc1 (stereo not given) | / | -4 | 2.8 | 4 | 0.9 | -0.8 | ? | -6
O=C(/C=C/c1c(F)cccc1Cl)Nc1nc2ccccc2[nH]1 | 7 | 9 | -3.2 | -2 | 0.0 | -4.8 | -6.6 | -3
C=CCNC(=S)NNc1ncnc2sc3c(c12)CC(C)(C)OC3 | 5 | 3 | 4.5 | 0 | 0.0 | -0.1 | 0.3 | 20
Cc1cc(C)c(C)c(OCC(=O)N2CCCCCC2)c1 | / | -44 | -0.4 | -9 | -1.0 | 0.1 | 1.2 | -8
COc1ccc(N=C2NC(=O)/C(=C\c3ccco3)S2)cc1 | 3 | 56 | 2.1 | -7 | 4.3 | -0.2 | -4.0 | -7
CC(NC(=O)CCC(=O)c1ccccc1)c1ccc(F)cc1 (stereo not given) | -10 | -4 | 2.9 | 3 | -1.8 | 0.7 | -0.8 | 1
C/C(=N\NS(C)(=O)=O)c1ccc(C)cc1 | -4 | 15 | / | -4 | 1.4 | -1.3 | 4.7 | -7
CCN1CCN(CCNC(=O)c2cc(Cl)c(NC(=O)C3=C(C)OCCS3)cc2OC)CC1 | 4 | 53 | 2.8 | -9 | 2.2 | 0.6 | 2.9 | 19
CSC1=C(C#N)C(c2ccc(Cl)cc2)C2=C(CC(C)(C)CC2=O)N1 (stereo not given) | 5 | -16 | -18 | -5 | -0.9 | 0.0 | 13 | 16
Cn1nccc1C(=O)Nc1nnc(C2CC2)s1 | 0 | 5 | 3.6 | 2 | -3.2 | -0.3 | -3.5 | 0
COc1ccc(S(=O)(=O)N(C)c2ccc(C(=O)N3CCN(c4ccccc4)CC3)cc2)cc1OC | 8 | -2 | 0.1 | 2 | -7.4 | -0.4 | 5.1 | 3
Cc1ccc[n+](CC(=O)Nc2cc(C(F)(F)F)ccc2Cl)c1 | -10 | 20 | 3.7 | 4 | 0.1 | 1.1 | 6.0 | -18
Cc1ccc(SCc2c(C(=O)N/N=C/c3ccccc3)nnn2-c2nonc2N)cc1 | 0 | -11 | / | -5 | -0.6 | 0.1 | 6.8 | -4
NS(=O)(=O)c1ccc(O)c(NC(=O)c2ccc([N+](=O)[O-])cc2)c1 | 3 | 6 | 4.0 | 3 | 0.8 | 2.2 | 0.5 | -1
Cc1cc(C)nc(SCc2nc3ccccc3n2C)n1 | 0 | 7 | 5.3 | -7 | 1.0 | -0.1 | 6.0 | -2
CC(=O)c1ccc(OCC(O)CNCc2ccc3c(c2)OCO3)cc1 (stereo not given) | 3 | -6 | 2.7 | -8 | -2.0 | 0.5 | 5.9 | 19
Cc1ccc(S(=O)(=O)N2CCCCC2)cc1NC(=O)Cn1ccc(C(F)(F)F)n1 | 2 | -25 | -1.2 | 5 | -1.6 | 0.1 | 4.0 | 13
Cc1ncoc1C(=O)N1CCCC(C(=O)c2ccc(-c3ccccc3)cc2)C1 (stereo not given) | 0 | 6 | -0.9 | -4 | 2.3 | -0.2 | -0.3 | 7
Fc1ccc(Nc2ncnc3sc4c(c23)CCC4)cc1 | -1 | 3 | 0.9 | -19 | -8.8 | 2.4 | 1.1 | -6
Cc1ccc(CN2CCN(CCCc3ccccc3)CC2CCO)cc1 (stereo not given) | 3 | -3 | 1.4 | 6 | -9.2 | 1.3 | ? | 17
CC(=O)Nc1ccc(NC(=O)C(C)OC(=O)c2ccc(-n3cnnn3)cc2)cc1 (stereo not given) | / | -10 | 1.7 | 0 | -3.7 | 1.1 | -0.3 | -3
CCC1CCc2sc(C(=O)N3CCCN(C)CC3)cc2C1 (stereo not given) | -2 | / | 2.7 | -17 | -8.9 | 0.1 | / | 39

Another view of part of the listing above:
molecule: CC(=O)Nc1ccc(NC(=O)C(C)OC(=O)c2ccc(-n3cnnn3)cc2)cc1 (stereo not given)
  Beta apoptosis: /	Calb FLC: -10	UCH37 inh: 1.7	B2AR ag: 0	LANA-H2A inh: -3.7	Bfl-1 A1 inh: 1.1	RanGTP-Impb inh: -0.3	T cruzi repl: -3
molecule: Cc1ccc(SCc2c(C(=O)N/N=C/c3ccccc3)nnn2-c2nonc2N)cc1
  Beta apoptosis: 0	Calb FLC: -11	UCH37 inh: /	B2AR ag: -5	LANA-H2A inh: -0.6	Bfl-1 A1 inh: 0.1	RanGTP-Impb inh: 6.8	T cruzi repl: -4
molecule: Cc1ccc(S(=O)(=O)N2CCCCC2)cc1NC(=O)Cn1ccc(C(F)(F)F)n1
  Beta apoptosis: 2	Calb FLC: -25	UCH37 inh: -1.2	B2AR ag: 5	LANA-H2A inh: -1.6	Bfl-1 A1 inh: 0.1	RanGTP-Impb inh: 4.0	T cruzi repl: 13
molecule: COc1ccc(S(=O)(=O)N(C)c2ccc(C(=O)N3CCN(c4ccccc4)CC3)cc2)cc1OC
  Beta apoptosis: 8	Calb FLC: -2	UCH37 inh: 0.1	B2AR ag: 2	LANA-H2A inh: -7.4	Bfl-1 A1 inh: -0.4	RanGTP-Impb inh: 5.1	T cruzi repl: 3

Further results
canonical_smiles | Beta apoptosis | Calb FLC | UCH37 inh | B2AR ag | LANA-H2A inh | Bfl-1 A1 inh | RanGTP-Impb inh | T cruzi repl
CC(=O)c1c(OC(=O)c2ccc(C)cc2)c2ccccc2n1C | / | -19 | -0.7 | -4 | -3.6 | -0.3 | 1.4 | -13
COc1ccc(Cc2noc(CN3CCN(C4CCc5ccccc5C4)CC3)n2)cc1OC (stereo not given) | / | -8 | 6.1 | -2 | -4.2 | -1.3 | -0.9 | 57*
CCO[C@H]1OC(C(=O)NCc2nc3ccccc3[nH]2)=C[C@@H](c2ccc(Br)cc2)[C@@H]1CCCO | 2 | 18 | -2.1 | 4 | -1.3 | 0.0 | -0.8 | 15
O=C(N/N=C\c1ccc(F)cc1)c1csnn1 | 3 | 8 | / | -1 | 1.3 | -5.4 | -2.8 | 11
Cc1nn(C)c(Cl)c1S(=O)(=O)N1CCC(CO)(CCc2ccccc2)CC1 | 2 | -4 | 5.1 | 4 | 4.0 | -0.4 | -1.1 | -4
COc1ccc2c(=O)c(-c3nc(C)cs3)coc2c1 | 19 | -1 | -3.4 | 6 | -1.0 | -10 | 1.8 | -18
CCCCCN(C(=O)CN(C)Cc1ccc(OC)cc1OC)c1c(N)n(CCCC)c(=O)[nH]c1=O | -7 | 22 | -3.8 | 11 | 0.8 | 1.0 | 20* | -3
O=C(O)c1ccccc1-c1ccccc1C(=O)Nc1cccc(O)c1 | 3 | -1 | -0.7 | -3 | 1.2 | 1.0 | -0.7 | -9

Already shown: entries from further up.
canonical_smiles | Beta apoptosis | Calb FLC | UCH37 inh | B2AR ag | LANA-H2A inh | Bfl-1 A1 inh | RanGTP-Impb inh | T cruzi repl
O=C(N/N=C\c1ccc(F)cc1)c1csnn1 | 3 | 8 | / | -1 | 1.3 | -5.4 | -2.8 | 11
Cc1nn(C)c(Cl)c1S(=O)(=O)N1CCC(CO)(CCc2ccccc2)CC1 | 2 | -4 | 5.1 | 4 | 4.0 | -0.4 | -1.1 | -4

Screening results: PubChem, several laboratories
